Assay outcomes from PubChem.
Sa ugtP lethal: compounds lethal to S. aureus RN4220 ugtP deletion mutant | OD600 growth, 16 h; some inactives read as strong as hits | growth inhibition, % (concentration not given with the values) | actives 0.54% (n = 330,000);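 active = z-score under -3 and OD600 up to 0.15 on both plates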;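 also: plate controls were untreated wells for no effect and antibiotic for full effect; wells of about 80 µL received 100 nL stock; the first replicate is given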
Sa RN4220 lethal: kills Staphylococcus aureus RN4220; AID 1259311; inhibition, % (test concentration not listed); S. aureus RN4220 growth, OD600, 16 h; actives 0.33% (n = 330,000);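 active = z-score of -3 or lower and OD600 up to 0.18 on both plates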;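 also: plate controls were untreated cells for no effect and reference antibiotic for full effect; stock transfer was 100 nL into about 80 µL; one replicate is shown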
Mtb hypoxia inh: inhibitors of hypoxia-regulated fluorescent reporter in Mycobacterium tuberculosis | M. tuberculosis hypoxia-regulated fluorescent reporter, fluorescence | fluorescence inhibition, % (no concentration beside the values) | actives 0.1% (n = 300,000) | AID 1159583;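 active = 35 to 45% if threefold the growth effect, above 45% if 1.5-fold the growth effect; inactive = the rest, general growth blockers included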;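 also: wells of about 50 µL received 100 nL stock; 0% = vehicle wells and 100% = reference inhibitor wells; whole bacteria with a GFP reporter of the hypoxia response; strong numbers were not always called active; many hits fall short of the cut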
PrP UTR inh: suppresses PrP 5' UTR mRNA reporter expression; actives 0.35% (n = 340,000); inhibition, % (no concentration beside the values); cell-based PrP 5' UTR mRNA reporter, plate reader;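 active = every replicate at 50% or more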;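 also: 0 = median of the neutral control wells; tested in H4 reporter cells; numbers are from one replicate; inactives centre near -14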
Autofluor counter: flagged as autofluorescent in microsphere protease counterscreen; compound autofluorescence counterscreen, microsphere flow cytometry; hits give high values; fluorescence intensity (no concentration beside the values); actives 3.1% (n = 360,000);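 active = at least 3 SD above the mean of all compounds, about 16000 in these data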;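 also: 100 nL of 1 mM stock went into each well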
BJeLR lethal: BJeLR cell viability loss | BJeLR (HRASV12) viability, CellTiter-Glo ATP luminescence, 48 h; reference of the scale not given here | AID 1554 | actives 0.17% (n = 300,000) | inhibition, % (concentration not given with the values);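 active = replicate mean above 50%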;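 also: 50 nL library stock added to about 25 µL; numbers are from one replicate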
Mtb hypoxia inh growth: also measured in Mtb hypoxia inh; calls as there; growth inhibition, %; measured here: M. tuberculosis growth (absorbance);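 0% = vehicle and 100% = reference antibiotic; read after six days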
An asterisk follows results filed as active; / = no result given.

SMILES	Sa ugtP lethal	Sa RN4220 lethal	Mtb hypoxia inh	Mtb hypoxia inh growth	PrP UTR inh	Autofluor counter	BJeLR lethal
COC(=O)c1ccc(CNC(=O)COC(=O)C2CCC(C(C)(C)C)CC2)cc1 (configuration not stated)	3	3.9	-2	-6	-4	2133	-4
COC(=O)c1sccc1NC(=S)NCc1ccc(Cl)cc1	-16	-8.0	18	4	-5	3252	-7
C/C(CC(C)(C)c1ccccc1)=N\NS(=O)(=O)c1ccccc1	/	/	/	/	-6	3747	1
Cc1ccc(NC(=S)NC2CC3CCCC(C2)N3Cc2cccs2)cc1 (configuration not stated)	21	4.7	3	-3	-15	11347	7
CCCCn1c(=O)[nH]c(=O)c2c1nc(-c1cccc(OC)c1)n2C	-5	-7.1	-12	-3	-3	4241	-9
N#C/C(C(=O)N1CCCC1)=C1/N=C(N)c2ccccc21	10	3.6	11	8	-27	10425	-2
Cc1ccc(C#CC[N+]2(CC#Cc3ccc(C)cc3)CCCCC2)cc1	96*	3.6	18	31	-8	2339	23
CCOC(=O)C1C2COc3ccc(OC)cc3C2N2C(=O)c3cc(OC)ccc3NC(=O)[C@@]12C (some centres not stated)	-3	8.5	-1	-1	/	/	/
CCOc1ccc(C(=O)C(C)OC(=O)Cn2c(C)csc2=O)cc1 (configuration not stated)	4	13	0	-2	-18	5939	7
CC(C)Cn1c(N)c(C(=O)COC(=O)c2ccccc2F)c(=O)n(C)c1=O	4	-0.1	12	5	-27	4756	4
CNc1oc(-c2ccccc2F)nc1S(=O)(=O)c1ccc(C)cc1	14	8.7	-3	2	-4	4632	-4
Cc1ccc(S(=O)(=O)NCC2CCC(C(=O)O)CC2)cc1 (configuration not stated)	6	3.8	-2	8	3	10854	-4
COC(=O)[C@H](C)[C@H]1C[C@]1(C)[C@H](NC(=O)OCc1ccccc1)c1ccccc1	/	/	/	/	-14	4334	6
O=C(c1cccs1)N(Cc1ccccn1)Cc1ccco1	8	0.4	5	3	-36	24079*	1
COc1cc(-c2noc(-c3cccc(Cl)c3)n2)cc(OC)c1OC	-2	2.6	7	11	-16	22311*	4
COc1ccc(CC(=O)N[C@@H](CCSC)C(=O)N2CCC3(CC2)NCCc2[nH]cnc23)cc1	2	1.0	0	12	-107	5417	-2
O=C(COc1ccc2c3c(c(=O)oc2c1)CCC3)N[C@@H](Cc1ccccc1)C(=O)O	-9	6.1	/	/	17	5397	-1
CCOC(=O)Cc1csc(NS(=O)(=O)c2ccc(SC)cc2)n1	-5	2.8	-6	5	4	3674	-1
Cc1ccc(NC(=O)CSc2nnnn2C2CC2)cc1S(=O)(=O)N1CCOCC1	-4	2.0	11	4	-12	/	/
FC(F)(F)c1cccc(Cc2noc(CN3CCC(N4CCCCC4)CC3)n2)c1	4	16	5	9	7	4208	8
CCn1nc(C(=O)OCC(=O)c2ccc(F)cc2)c2ccccc2c1=O	12	-2.2	14	-3	8	3428	6
Cc1ccc(S(=O)(=O)NNC(=O)c2ccc(O)cc2)cc1	4	0.2	12	0	-15	8609	3
COc1ccc(C(=O)Cn2cc([N+](=O)[O-])nc2C)cc1	3	-2.4	-12	3	5	4056	-4
CCOC(=O)c1c2c3c(cccc3[nH]c1=O)C(=O)c1ccccc1-2	6	9.6	-25	-2	-9	3588	-3
Cc1ccc(S(=O)(=O)C2(S(=O)(=O)c3ccc(C)cc3)CC2)cc1	4	0.9	1	0	-31	6339	1
Clc1ccc2c(N/N=C/c3ccccc3Br)ccnc2c1	/	/	/	/	-34	10803	8
COc1ccccc1NC(=O)CSc1ccc2nnc(-c3ccncc3)n2n1	-1	3.9	-3	1	-18	5459	-13
O=c1ccc2ccc(OC3OC(CO)C(O)C(O)C3O)c(O)c2o1 (configuration not stated)	-1	2.5	9	9	/	/	/
Nn1c(SCC(=O)NCCC2=CCCCC2)nnc1-c1cccnc1	-5	-4.6	-4	8	-32	8191	/
COc1ccccc1Oc1ccccc1[N+](=O)[O-]	2	3.2	9	15	-23	5409	-6
COc1ccc(C(=O)Nc2cc(Cl)ccc2OC(=O)c2ccc(OC)cc2)cc1	-11	0.9	3	-3	-40	5953	-13
COc1ccc(Cc2nnc(SCc3nc4ccccc4c(=O)[nH]3)o2)cc1	0	3.2	0	0	-44	6554	0
O=C(CNC(=O)c1ccccc1Cl)NCC(c1cccs1)N1CCOCC1 (configuration not stated)	-1	3.4	9	4	-11	5423	-7
O=C(O)c1ccc(/C=C/c2nc3ccccc3c(=O)[nH]2)cc1	7	-0.8	3	-11	-3	3870	5
O=[N+]([O-])c1ccc(O)c(C=Nc2cccc3ncccc23)c1	66	80	8	12	3	2043	-2
C/C=C/C=C/C(=O)Nc1nccs1	/	/	/	/	-29	10914	0
COc1ccc(-c2nn(CCC#N)cc2C=C(C#N)C#N)cc1	-2	0.5	6	-9	-23	4083	-1
N/C(=N\OC(=O)CCC1CCCC1)c1ccncc1	6	4.9	6	27	-3	1999	-4
Cc1ccc(SCc2noc(-c3c(C)noc3C)n2)cc1	9	7.4	-7	6	-12	3204	-14
COc1ccc(NC(=O)CN(C)C(=O)C2CC(=O)N(c3ccc4c(c3)OCCO4)C2)cc1 (configuration not stated)	-1	0.9	-6	3	-19	4427	3

By substructure, the compounds so far with a cyano group
SMILES	Sa ugtP lethal	Sa RN4220 lethal	Mtb hypoxia inh	Mtb hypoxia inh growth	PrP UTR inh	Autofluor counter	BJeLR lethal
N#C/C(C(=O)N1CCCC1)=C1/N=C(N)c2ccccc21	10	3.6	11	8	-27	10425	-2
COc1ccc(-c2nn(CCC#N)cc2C=C(C#N)C#N)cc1	-2	0.5	6	-9	-23	4083	-1

Next section
SMILES	Sa ugtP lethal	Sa RN4220 lethal	Mtb hypoxia inh	Mtb hypoxia inh growth	PrP UTR inh	Autofluor counter	BJeLR lethal
O=C(NN1C(=O)C2C3C=CC(C3)C2C1=O)c1ccco1 (configuration not stated)	0	6.5	4	6	-5	2138	4
COc1ccc(N(CC(=O)N2c3ccccc3CC2C)S(=O)(=O)c2c(C)noc2C)cc1 (configuration not stated)	-9	15	3	10	-32	6220	-13
O=C(Nc1ccccc1C(=O)NCCN1CCOCC1)c1ccco1	5	0.9	-3	-3	-12	13648	-7
Cc1cccc(NC(=O)COC(=O)c2ccc(S(=O)(=O)N3CCCC3)cc2)c1	10	1.9	-3	9	-12	5983	/
COc1ccc(NC(=O)CSCc2cc(=O)n3ccsc3n2)cc1	0	-1.1	-3	-4	-18	5447	3
O=C(COC(=O)c1ccccc1Br)NC1CCCC1	-1	2.3	1	-3	-24	4907	-1
O=C(COC(=O)Cn1nc(-c2ccccc2)oc1=O)Nc1ccc(F)cc1	2	3.0	6	3	-13	/	/
Cc1nnc(NC(=O)c2csc3c2CCCC3)s1	6	0.2	3	1	/	/	9
CCOc1ccc(N(CC)S(=O)(=O)c2c(C)[nH]c(=O)[nH]c2=O)cc1	6	2.0	3	-5	-12	4161	-7
Cc1nc(Cl)nc(N(C)c2ccccc2)c1[N+](=O)[O-]	/	/	/	/	-18	4339	1
Cn1c(N)c(C(=O)COC(=O)[C@@H]2CCCN2S(=O)(=O)c2ccc(Cl)cc2)c(=O)n(C)c1=O	/	/	/	/	-17	4458	5
C=CCOC(=O)C(C#N)c1nc2ccccc2nc1N1CCN(Cc2ccc3c(c2)OCO3)CC1 (configuration not stated)	-11	0.8	/	/	-11	2850	1
CCOc1ccc(CCNC(=O)c2cn(C)c3ccc(S(=O)(=O)N4CCOCC4)cc3c2=O)cc1OCC	3	-0.4	4	8	-9	5916	-5
CCCOC(=O)CN1C(=O)c2ccc(C(=O)OCCC)cc2C1=O	-7	-1.9	-5	4	-11	3069	5
CCN1CCN(C(=O)c2ccc(CS(=O)(=O)Cc3ccccc3F)o2)CC1	2	4.0	12	-2	-18	25125*	1
CCOC(=O)N1CCN(C(=O)c2cc(COc3c(F)cccc3F)on2)CC1	7	2.1	-9	-4	-54	5387	-4
Cc1ccc(C(c2c(C)[nH][nH]c2=O)c2c(C)[nH][nH]c2=O)cc1[N+](=O)[O-]	3	1.4	5	14	-7	2578	4
Cc1cccnc1NC(=O)Nc1cccc2ccccc12	-8	5.8	7	10	-11	3029	1
CS(=O)(=O)N(Cc1nnc(-c2cccs2)o1)c1ccc(Cl)cc1F	7	1.4	10	14	-16	4000	-2
COc1ccc(OC)c(S(=O)(=O)n2ccc(C)n2)c1	/	/	/	/	-19	3424	-3
CSc1ncc(Cl)c(C(=O)O)n1 (tested in a mixture with another compound)	3	1.8	/	/	-11	2410	9
CCCN(C(=O)C(NC(=O)c1ccccc1)C(C)C)c1c(N)n(Cc2ccccc2)c(=O)[nH]c1=O (configuration not stated)	4	0.1	20	8	-14	4208	/
Nc1ccccc1N=Cc1c(O)n(CCC2=CCCCC2)c(=O)[nH]c1=O	-11	-2.0	-4	-7	-4	/	-3
Cc1cccc(NC(=S)NC2CC3CCCC(C2)N3CC(C)C)c1 (configuration not stated)	0	4.9	6	9	-27	8500	4
NS(=O)(=O)c1ccc(CCNS(=O)(=O)c2cccc(C(=O)O)c2)cc1	2	6.5	14	3	-9	5586	5
Cc1cccc(C(=O)N[C@H](C(=O)Nc2ccc(S(=O)(=O)NC3=NCCCCC3)cc2)C(C)C)c1	5	3.1	-2	12	-35	4230	-2
CCN(CC(=O)Nc1c(F)cccc1F)C(=O)c1cccc(S(=O)(=O)N2CCN(c3ccccc3)CC2)c1	6	-0.8	0	-5	-11	4409	-9
CC(C)c1cc(CNC(=O)CCc2nnc(CCCc3ccccc3)o2)on1	4	4.1	3	-4	-40	2806	2
O=c1[nH]cc(NCCNc2ncc(C(F)(F)F)cc2Cl)c(=O)[nH]1	-3	0.7	-11	-4	-19	2120	-5
COCCNC(=O)c1cccc(OC2CCN(C(C)COc3ccccc3)CC2)c1 (configuration not stated)	2	2.3	13	6	-14	4430	3
Cc1ccc2cc3c(NC(=O)c4ccco4)nn(C)c3nc2c1	/	/	/	/	-24	2539	-12
Cc1cccc(C(=O)N(Cc2ccco2)c2c(N)n(Cc3ccccc3)c(=O)[nH]c2=O)c1	6	3.2	-5	-4	90*	3436	/
CCC(=O)N(CCC1(C(C)C)CCOC(C)(C)C1)Cc1ccco1 (configuration not stated)	7	3.7	12	8	-31	15431	-15
COc1ccc(NC(=O)NNC(=O)COc2ccc3ccccc3c2)cc1	-3	-2.1	7	2	-7	6872	2
Cc1ccc(Sc2ccc(/C=N/O)cc2[N+](=O)[O-])cc1	/	/	/	/	-10	2383	-2
CCOc1cc(/C=C2\CCCc3c2nc2ccccc2c3C(=O)O)ccc1OC	/	/	/	/	-17	6264	1
CC1=C(CCN2CCN(C3CCCC3)C(CCO)C2)C(C)(C)CCC1 (configuration not stated)	15	3.6	5	-4	-7	4222	2
CCOC(=O)c1c(-c2ccc(F)cc2)csc1NC(=O)c1c(-c2ccccc2)noc1C	/	/	/	/	-28	11165	6
O=C(COC(=O)c1cncc(Br)c1)NCc1ccco1	0	1.6	4	8	-25	2933	0
Cc1ccccc1CSCC(=O)NCCSc1ccccn1	10	2.9	1	8	-24	4626	6

Not a retest: two of the compounds above.
SMILES	Sa ugtP lethal	Sa RN4220 lethal	Mtb hypoxia inh	Mtb hypoxia inh growth	PrP UTR inh	Autofluor counter	BJeLR lethal
O=C(COC(=O)c1cncc(Br)c1)NCc1ccco1	0	1.6	4	8	-25	2933	0
Cc1ccccc1CSCC(=O)NCCSc1ccccn1	10	2.9	1	8	-24	4626	6

(cont.)
SMILES	Sa ugtP lethal	Sa RN4220 lethal	Mtb hypoxia inh	Mtb hypoxia inh growth	PrP UTR inh	Autofluor counter	BJeLR lethal
CC(NCCc1ccc(S(N)(=O)=O)cc1)C(=O)NCCc1ccc(F)cc1 (configuration not stated)	0	1.5	-2	10	-17	3878	-5
CC1CCC(NC(=O)Cn2cc3c(n2)CCCC3)CC1 (configuration not stated)	0	-3.9	/	/	-35	4433	-15
CCc1nn(CCCC(=O)NC(C)c2ccccc2)c(=O)c2cc3occc3n12 (configuration not stated)	-4	4.1	1	1	-31	5893	7
CC(C)(C)c1nnc2sc(SCC(=O)N3CCc4ccccc43)nn2c1=O	0	5.8	2	0	-21	3362	-5
CC1CCN(CCCNC(=O)c2ccc(Cn3c(=S)[nH]c4ccc(Br)cc4c3=O)cc2)CC1	1	-3.3	2	17	/	/	9
COc1cc2c(O)cc(C(=O)O)c(-c3cc(OC)c(OC)c(OC)c3)c2cc1OC	-1	-0.4	-2	8	-8	3733	/

Not a hit list. About 4% of those tested had a hit in this group.
